# GLA inh pH 4.5: qHTS Assay for Inhibitors of Human alpha-Galactosidase at pH 4.5; AID 1467, 2008; Alpha-galactosidase A (Homo sapiens), P06280; 230,000 tested, under 10 active; activity change, negative = inhibition, % at 105 µM; purified enzyme, 4-MU-alpha-Gal fluorescence, pH 4.5; inconclusive = small, poorly fitted or top-dose-only inhibition, or a rising curve; inactive = flat fitted curve, though single readings scatter; no compound was filed as active;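 also: 0% = full activity with enzyme and -100% = basal without enzyme; dose as in the result columns while the protocol names 77 µM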
# Target sequence (P06280 whole entry, looked up): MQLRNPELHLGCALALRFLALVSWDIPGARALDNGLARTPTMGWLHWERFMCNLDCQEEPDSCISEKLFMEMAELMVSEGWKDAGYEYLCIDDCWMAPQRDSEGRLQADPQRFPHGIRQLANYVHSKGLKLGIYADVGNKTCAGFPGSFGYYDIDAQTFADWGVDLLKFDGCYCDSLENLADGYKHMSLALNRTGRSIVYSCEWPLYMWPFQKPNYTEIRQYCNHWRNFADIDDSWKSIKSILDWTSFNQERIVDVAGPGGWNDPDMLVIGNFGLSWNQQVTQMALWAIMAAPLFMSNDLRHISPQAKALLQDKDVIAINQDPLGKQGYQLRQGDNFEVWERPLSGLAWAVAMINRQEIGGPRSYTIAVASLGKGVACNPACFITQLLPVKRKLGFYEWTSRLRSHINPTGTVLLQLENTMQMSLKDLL
# Rango complex inh: qHTS Assay for Inhibitors of Rango (Ran-regulated importin-beta cargo) - Importin beta complex formation; Rango CFP/YFP FRET sensor + importin beta, 45 min; Potency, µM (series often up to 92.2 µM), without a hit: top-dose inhibition of complex formation; 0.031% of 340,000 active; active = rising FRET ratio curve, often small or poorly fitted; inconclusive = mostly compound fluorescence or quenching in the first reads; inactive = flat curves in all reads;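 also: potency is read from the fitted curve at half-maximal effect; 0% = DMSO wells and 100% = buffer wells lacking importin beta; nearly all actives have a fitted effect of over 15% in size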
#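 FRET biosensor (snurportin 1 IBB flanked by EYFP and cerulean), 50 nM, with compound 5 min, then 0.125 microM importin beta in PBS, 1 mM DTT, 0.02% Tween-20, 0.1% BSA. CFP/YFP ratio read after 45 min at room temperature; pre-read flags interference.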
# miR-21 reporter: qHTS Assay for Modulators of miRNAs and/orActivators of miR-21. HeLa miR-21 FLuc reporter, luciferase, 48 h. 340,000 tested, under 10 active. Potency, µM (titrated, usually from 38.3 µM), for inactives: at the top dose reporter change, positive = more light. AID 2288, 2010; active = well fitted rising curve with a large enough effect; inconclusive = small, poorly fitted or top-dose-only effect; inactive = no such curve, though single readings can be large or run the other way;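 also: % of control where 0% means no effect; miR-21 action dims this reporter so a rising signal means less miR-21 action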
#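 Compounds were titrated across several concentrations (up to approximately 40 uM) and incubated 48 hours with HeLa miR-21-FLuc reporter cells (miR-21 target sequence downstream of FLuc, endogenous miR-21). Readout was firefly luciferase luminescence after lytic detection reagent.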
# Rango dissoc inh: qHTS Assay for Inhibitors of RanGTP induced Rango (Ran-regulated importin-beta cargo) - Importin beta complex dissociation; Snurportin-1 (Homo sapiens) + GTP-binding nuclear protein Ran (Homo sapiens) + Importin …; Biochemical FRET Rango-importin beta, RanGTP-induced dissociation; Potency, µM (titrated, usually from 46.1 µM), for inactives: at the highest dose activity change, negative = inhibition; 0.071% of 340,000 active; AID 540253, 2011; active means falling FRET ratio curve, often poorly fitted, with flat reads before Ran was added; inconclusive means other falling curves, or compound fluorescence or quenching; inactive means flat or rising ratio curve;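 also: potency is read from the fitted curve at half-maximal effect; % of control where 0% means no effect; nearly all actives have a fitted effect of over 45% in size; -100% = wells without RanGTP and RCC1; the record marks most hits as doubtful in a second field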
#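 Rango (0.1 uM)–importin beta (0.25 uM) complex; RanGTP-RCC1 trigger; 45 min RT; CFP/YFP FRET read.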
# * marks the source's active call; other numbers are inactive results; u = inconclusive; x = not tested or not shown; [ ] = remark or other dose.
cpd	molecule	GLA inh pH 4.5	Rango complex inh	miR-21 reporter	Rango dissoc inh
1	CC(C)c1ccc(NC(=O)CCCN2C(=O)NC(C)(C)C2=O)cc1	x	-1.6%	x	-10%
2	CCOc1cc(N2CCOCC2)c(OCC)cc1NC(=O)COC(=O)c1ccc(Cl)nc1	x	1.3%	x	-1%
3	COc1ccccc1CN(C)C(=O)COC(=O)c1c(C)noc1C	x	0.5%	x	7%
4	O=S(=O)(Nc1nc2ccccc2nc1Cl)c1ccc(Cl)cc1	-1	-2.1%	7%	-3%
5	C=CCn1c(SCC(=O)Nc2ccc(O)cc2)nc2sc(C)c(C)c2c1=O	x	0.1%	x	-7%
6	N#Cc1ccccc1OCC(=O)NC(=O)NC1CCS(=O)(=O)C1 (stereo not drawn)	x	4.9%	x	5%
7	COc1ccccc1C1/C(=C(/O)c2ccc(OC(C)C)cc2)C(=O)C(=O)N1c1cc(C)on1 (stereo not drawn)	0	2.6%	11%	-7%
8	Cc1ccc(OCCSc2nc(NC(C)C)nc(NC(C)C)n2)cc1	-11	-1.7%	3%	-5%
9	O=C(COC(=O)C12CC3CC(CC(O)(C3)C1)C2)Nc1ccccc1OC(F)F	-5	-2.6%	-9%	9%
10	COc1cc(OC)cc(-c2c(-c3cccs3)c3cc(-c4cc(OC)c(OC)c(OC)c4)ccc3n2C)c1	x	-2.4%	x	-10%
11	O=C(NNS(=O)(=O)c1ccc2ccccc2c1)c1cccnc1	2	-4.3%	-8%	-3%
12	Cc1nc2c(C)cccn2c1/C(O)=C1\C(=O)C(=O)N(CCN(C)C)C1c1ccccc1 (stereo not drawn)	-9	-0.9%	2%	-3%
13	CCCn1nc2cc(C(=O)NCc3ccc(C)cc3)ccc2c1OC	7	-0.4%	-8%	0%
14	N#CCc1c[nH]c2ccc([N+](=O)[O-])cc12	x	1.6%	x	-7%
15	C#CCOC(=O)c1csc2nnsc12	0	2.1%	-7%	-10%
16	O=C(O)C1=C(C2CCCCC2)C(=O)c2ccccc21	x	2.0%	x	3%
17	CC1=C(C(N)=O)C(c2ccccc2F)NC(=O)N1 (stereo not drawn)	-10	-5.4%	1%	2%
18	O=C(COC(=O)c1cccc(Cl)c1)NC1CCS(=O)(=O)C1 (stereo not drawn)	x	0.1%	x	-1%
19	CCOC(=O)CNC(=O)CSc1ccc(-c2nc3ccccc3[nH]2)cn1	x	2.9%	-3%	-3%
20	CCc1cc2c(N[C@@H](C)C(=O)O)ncnc2s1	1	-2.3%	-8%	3%
21	COc1cccc(CC(=O)Nc2ccccc2N2CCCC2)c1	x	u	-4%	9%
22	CC(C)c1ccc(C(C)NC(=S)NC2CCCCC2)cc1 (stereo not drawn)	x	-9.1%	25%	-2%
23	CCCCOc1ccc2ccccc2c1C=O	-15	7.8%	-31%	29%
24	O=C(CN1C(=O)c2ccccc2C1=O)NCC(=O)OCC(=O)c1ccc(Br)cc1	-2	-1.1%	-4%	1%
25	COc1ccc(CN(Cc2cccn2C)S(=O)(=O)c2ccccc2)cc1	-2	-2.8%	-4%	-5%
26	N#C/C(=C\c1ccccc1[N+](=O)[O-])c1nc(C2CC2)cs1	0	3.0%	-18%	2%
27	COCCCNC(=O)Cn1ncc2ccsc2c1=O	1	-2.7%	0%	0%
28	CCOc1ccc(-n2nnc3c(=O)n(CC(=O)NCc4ccco4)cnc32)cc1	-7	-2.8%	6%	1%
29	CCS(=O)(=O)N1Cc2ccccc2CC1C(=O)Nc1ncc(C)s1 (stereo not drawn)	1	2.1%	-42%	-7%
30	Cc1sc(NC(=S)NC(=O)c2ccco2)c(C(N)=O)c1C	-8	-0.4%	-30%	13%
31	O=C(O)Cc1csc(-c2ccccc2)n1	-15	4.3%	-8%	-1%
32	CC(=O)N1CCc2cc(S(=O)(=O)Nc3ccc(C)cc3)ccc21	x	-1.9%	7%	-6%
33	O=C(Nc1nc2nc(-c3ccccc3)cc(=O)n2[nH]1)c1ccccc1	0	-1.2%	-2%	20%
34	C=CCn1c(-c2ccc(=O)n(Cc3ccccc3)c2)n[nH]c1=S	4	x	-1%	x
35	Cc1csc(NC(=O)c2cccs2)n1	-10	-2.9%	-17%	0%
36	CCCCn1c(-c2ccc(Br)cc2F)nc2c1c(=O)[nH]c(=O)n2CC(C)C	x	-0.8%	1%	-9%
37	O=C(Nc1cccc(S(=O)(=O)N2CCCCC2)c1)C1COc2ccccc2O1 (stereo not drawn)	x	-1.2%	x	36%
38	CC1CCCN(C(=O)Cn2nnc(-c3ccc(N(C)C)cc3)n2)C1 (stereo not drawn)	x	2.4%	-4%	2%
39	Cc1ccc(C)c2c3c([nH]c12)-c1nonc1CC3	-4	0.0%	-16%	6%
40	Cc1ccc2c(c1)nnn2C1CCN(S(=O)(=O)c2ccc(C(=O)NC3CCCC3)cc2)CC1	-3	-0.8%	-5%	-7%
41	CCCN1CCN(CC(O)COC(c2ccc(OC)cc2)c2ccc(OC)cc2)CC1 (stereo not drawn)	x	3.3%	-4%	4%
42	O=C(NC(=S)NCc1ccco1)c1ccc([N+](=O)[O-])cc1	x	0.1%	x	-5%
43	CC1CN(c2ccccc2)c2nc3c(c(=O)[nH]c(=O)n3C)n2C1 (stereo not drawn)	x	-1.5%	-4%	-1%
44	CCOc1cccc2c1OC(c1cc(OC)c(OC)c(OC)c1)N1N=C(c3ccc(C)o3)CC21 (stereo not drawn)	-9	u	-46%	u
45	O=C(CSc1nnnn1C1CC2C=CC1C2)Nc1ccc(C(=O)O)cc1 (stereo not drawn)	x	2.6%	x	-1%
46	CSc1nc(N)nc(SCC(=O)c2ccccc2)c1C#N	3	u	-26%	u
47	Cc1ccc(NC(=O)CCn2nc(C)cc2C)c(C)c1	5	5.1%	-8%	-1%
48	O=C(CN1C(=O)C2C3c4ccccc4C(c4ccccc43)C2C1=O)Nc1ccccc1C(=O)O (stereo not drawn)	2	0.9%	2%	13%
49	CCOC(=O)c1cc(=O)n2[nH]c(-c3ccc(C)cc3)cc2n1	-3	u	-6%	-15%
50	COc1ccccc1CN(Cc1cc2cc3c(cc2[nH]c1=O)OCCO3)Cc1nnnn1Cc1ccco1	-9	u	-17%	u
51	Cn1c(=O)c2[nH]c(COc3ccc(C(C)(C)C)cc3)nc2n(C)c1=O	-6	-9.9%	5%	8%
52	CC(=O)Nc1ccc(C(=O)NC(CC(=O)O)c2ccc(Cl)cc2)cc1 (stereo not drawn)	5	9.3%	-1%	17%
53	Cc1cccc(C(=O)OCC(=O)NC(C)C2CC3CCC2C3)c1O (stereo not drawn)	x	4.8%	x	25%
54	CC(C)(C)c1ccc(C(=O)CCC(=O)NCc2ccccc2)cc1	x	-3.5%	x	14%
55	Cc1ncc(CO)c(/C=N/NC(=S)Nc2ccc(Cl)c(Cl)c2)c1O	5	u	26%	u
56	COc1cc(OC)cc(/C(N)=N/O)c1	4	0.8%	-4%	0%
57	[2H]c1c([2H])c([2H])c(-c2nc(N3CCCCCC3)sc2C(=O)c2ccccc2)c([2H])c1[2H]	3	u	-1%	u
58	Cc1cc(C)cc(NC(=O)Nc2ccc3c(c2)N(C)C(=O)CS3)c1	-5	3.9%	20%	-7%
59	Cc1cccc(OCC(=O)Nc2ccc3c(c2)C(=O)NC3=O)c1	x	-0.3%	0%	1%
60	COc1ccc(/C=N/NC(=O)c2ccc(=O)n(C)c2)cc1OC	-6	-1.8%	0%	-2%

# Single records, as listed above:
# Cn1c(=O)c2[nH]c(COc3ccc(C(C)(C)C)cc3)nc2n(C)c1=O is entered as GLA inh pH 4.5: -6; Rango complex inh: -9.9%; miR-21 reporter: 5%; Rango dissoc inh: 8%
# [2H]c1c([2H])c([2H])c(-c2nc(N3CCCCCC3)sc2C(=O)c2ccccc2)c([2H])c1[2H] is entered as GLA inh pH 4.5: 3; Rango complex inh: u; miR-21 reporter: -1%; Rango dissoc inh: u

# New compounds follow
cpd	molecule	GLA inh pH 4.5	Rango complex inh	miR-21 reporter	Rango dissoc inh
61	Cc1cc(C)cc(NC(=O)C2C3C=CC4(O3)C2C(=O)N(CCN2CCCCC2)C4C(=O)NC2CCCCC2)c1 (stereo not drawn)	x	-2.3%	10%	-4%
62	CC1(c2ccccc2Cl)NC(=O)N(CC(=O)N2CCc3ccccc3C2)C1=O (stereo not drawn)	x	-1.9%	x	4%
63	CCOc1ccc(S(=O)(=O)N2CCN(CN3C(=O)CC4(CCCC4)C3=O)CC2)cc1	x	0.5%	x	-2%
64	CN(C)P(=O)(Nc1cccc2ccccc12)Nc1cccc2ccccc12	x	-2.3%	x	1%
65	CCOc1cc(S(=O)(=O)NCCc2cccc(C)c2)c(OCC)cc1-n1cnnn1	-18	-0.9%	1%	3%
66	COc1cccc(/C=C/C(=O)c2cccc([N+](=O)[O-])c2)c1OC	-12	1.6%	10%	0%
67	O=[N+]([O-])c1c(Nc2cccc(O)c2)cc(Cl)c2nonc12	x	-3.6%	u	1%
68	CC1(C)CC(=O)/C(=C(\O)Cc2ccccc2)C(=NCCCCCC(=O)O)C1	1	-0.6%	-4%	-3%
69	CC(=O)c1c[nH]c(C(=O)NCc2ccccc2Cl)c1	x	2.4%	2%	27%
70	Cc1ccc(C)c(NC(=O)CCN2CCOCC2)c1	-17	-0.9%	-3%	-10%
71	CCCc1cc(NC(=O)COC(=O)c2nccnc2N)n(-c2ccccc2)n1	x	0.1%	x	-10%
72	CC(=O)Nc1sc(-c2ccccc2)nc1-c1ccccc1	-1	0.6%	-12%	15%
73	Cc1ccc(S(=O)(=O)CC2CSc3nc4ccccc4n32)cc1 (stereo not drawn)	2	0.0%	21%	-23%
74	C=CCc1cccc2cc(C(=O)N3CCN(C(=O)c4ccco4)CC3)c(=O)oc12	-12	-3.8%	-2%	-2%
75	NS(=O)(=O)c1ccc(CNC(=O)/C=C/c2ccc(S(=O)(=O)N3CCOCC3)cc2)cc1	0	-1.6%	-1%	1%
76	COc1ccc2cc(C(c3nnnn3CC3CCCO3)N3CCOCC3)c(=O)[nH]c2c1 (stereo not drawn)	14	-3.6%	-4%	-10%
77	Cc1ccccc1C(=O)NC(=S)NC1CC1	x	0.3%	-12%	-2%
78	CC1CN(S(=O)(=O)c2ccc(CN3C(=O)c4cccnc4C3=O)s2)c2ccccc2O1 (stereo not drawn)	x	0.0%	8%	u
79	CCOC(=O)C1CCN(C(=O)c2ccc(C)c(S(=O)(=O)N3CCCC3)c2)CC1	x	0.4%	-24%	-2%
80	O=C(Cc1n[nH]c(=O)[nH]c1=O)N/N=C/c1ccccc1	0	-2.0%	-2%	-1%
81	CSc1cccc(NC(=O)/C=C/c2ccco2)c1	-5[21.1 µM]	u	-44%	-15%
82	C=CCc1ccccc1OCC(O)CN1CCN(CCO)CC1 (stereo not drawn)	x	-0.1%	-1%	-2%
83	Cc1cccc(NC(=O)c2ccc(N3CCCCC3)c([N+](=O)[O-])c2)n1	-16	-0.3%	11%	7%
84	CCOC(=O)Cn1nnc2c(sc3nc4c(c(-c5ccc(Cl)cc5)c32)CCC4)c1=O	5	3.2%	-7%	-9%
85	C/C(=N\NC(=O)c1ccoc1C)c1ccccc1O	x	u	12%	-29%
86	O=C(COC(=O)c1cnccn1)c1ccc(OC(=O)c2ccccc2)cc1	-2	7.3%	1%	15%
87	CCC(Sc1nc2c(cnn2-c2ccc(Cl)cc2)c(=O)[nH]1)C(=O)OC (stereo not drawn)	3	3.3%	-11%	10%
88	O=c1ccc(-c2ccccc2)nn1Cc1ccc(Cl)cc1	x	4.3%	x	-9%
89	O=[N+]([O-])c1ccc(N/N=C/c2c[nH]c3ccccc23)c(S(=O)(=O)Nc2ccc(Cl)cc2)c1	-4	u	6%	-5%
90	CCC(=O)Nc1ccc(NC(=O)c2cccc3c(Br)cccc23)cc1	x	0.0%	0%	u
91	Cc1cccc(CCN2CCN=C2Nc2ccccc2)c1	x	-3.6%	x	9%

# The list is partial, so the mix of outcomes need not match the whole.
